Assay outcomes as filed in PubChem.
VCAM-1 imaging = suppression of endothelial VCAM-1 upregulation – imaging, high-content imaging, pooled HUVEC, TNFa stimulus (AID 456); inhibition, % at 5 µM, or IC50 in µM where a hit was titrated; HUVEC TNFa-induced VCAM-1 surface expression, immunofluorescence imaging; numbers were filed only for top-ranked candidate wells; 0.2% of 10,000 active;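 active means top tenth filtered wells with inhibition above zero that passed visual or statistical confirmation; inactive means the rest, including hits rejected on review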;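 further: 0% = stimulated vehicle wells and 100% = unstimulated cells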
VCAM-1 down = inhibitors of TNFa-induced VCAM-1 surface display, cell-based, plate reader, pooled HUVEC, TNFa stimulus (AID 454). HUVEC TNFa-induced VCAM-1 surface immunofluorescence, plate reader; numbers were filed only for top-ranked candidate wells. inhibition, % at 5 µM. 0.2% of 10,000 active;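 active means compound among top-ranked inhibitors of TNF-induced VCAM-1 adhesion protein staining, with the hit upheld by image or statistical review; inactive means the rest, including hits rejected on review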;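 further: 0% = TNFa with vehicle and 100% = cells without TNFa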
FPR ligand = ligands of human FPR, also counter-screen for FPRL1 ligands; 0.74% of 24,000 active; P21462; inhibition, %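 (tested at 6.7 µM)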; FPR-expressing cells, fluorescent ligand binding, flow cytometry;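 further: 0% = buffer wells and 100% = receptor blocker peptide wells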
Target sequence (P21462 whole entry, looked up): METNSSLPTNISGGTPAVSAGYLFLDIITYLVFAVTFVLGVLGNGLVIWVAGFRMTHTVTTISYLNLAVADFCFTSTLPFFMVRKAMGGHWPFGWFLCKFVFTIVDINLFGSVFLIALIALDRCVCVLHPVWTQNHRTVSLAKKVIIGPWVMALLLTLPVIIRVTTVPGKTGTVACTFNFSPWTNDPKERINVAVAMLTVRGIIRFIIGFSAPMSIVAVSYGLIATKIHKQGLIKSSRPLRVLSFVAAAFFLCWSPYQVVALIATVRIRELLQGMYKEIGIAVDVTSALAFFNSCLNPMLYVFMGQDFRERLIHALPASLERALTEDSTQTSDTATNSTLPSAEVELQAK
VCAM-1 up imaging = enhancers of VCAM-1 display on endothelial cells, imaging, high-content imaging, pooled HUVEC, TNFa stimulus (AID 457) | calls only | Pooled HUVEC, TNFa-induced VCAM-1 immunofluorescence imaging; hits of this screen are not shown here | 0.2% of 10,000 active;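 active means a top-ranked rise in VCAM-1 staining upheld on image or statistical review; inactive means the rest, including candidates rejected on review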;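 further: compounds tested at 5 µM in the well; cells exposed to compound for 24 hours before fixing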
FPRL1 ligand = ligands of human FPRL1, also counter-screen for FPR ligands; AID 441; FPRL1-expressing cells, fluorescent ligand binding inhibition, flow cytometry; P25090; 0.3% of 24,000 active; inhibition, %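 (tested at 6.7 µM)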;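 further: 0% = buffer alone and 100% = receptor blocker peptide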
Target sequence (P25090 whole entry, looked up): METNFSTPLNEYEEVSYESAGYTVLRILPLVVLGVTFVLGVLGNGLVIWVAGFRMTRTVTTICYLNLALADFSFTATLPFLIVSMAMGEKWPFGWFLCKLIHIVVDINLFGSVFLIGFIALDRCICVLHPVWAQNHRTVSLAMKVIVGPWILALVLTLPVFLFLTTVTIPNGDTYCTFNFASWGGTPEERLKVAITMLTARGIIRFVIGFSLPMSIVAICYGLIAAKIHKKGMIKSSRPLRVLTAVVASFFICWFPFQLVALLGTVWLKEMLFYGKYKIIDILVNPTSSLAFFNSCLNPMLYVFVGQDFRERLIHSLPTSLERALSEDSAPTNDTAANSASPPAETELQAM
Numbers without * were called inactive; i = inactive; · = not tested or not shown.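 How the source made its calls, unless noted: active means mean above 30%; inconclusive means self-fluorescent; inactive means the rest.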 This is a subset; rates above refer to the full screens.

SMILES | VCAM-1 imaging | VCAM-1 down | FPR ligand | VCAM-1 up imaging | FPRL1 ligand
COc1ccc(CCNC(=O)C2CCCN(S(=O)(=O)c3cccc4nonc34)C2)cc1OC (stereo unspecified) | · | · | 4 | · | -1
CC[n+]1ccc(C)c2cc(S(=O)C(F)(F)F)ccc21 (stereo unspecified) | · | · | -3 | · | 4
CC1(C)CC(=O)C(C(=O)CCCCC(=O)C2C(=O)CC(C)(C)CC2=O)C(=O)C1 | i | i | 2 | i | -5
Nc1nc(N2CCOCC2)nc(N(c2ccccc2)c2ccccc2)n1 | · | · | 1 | · | -2
CCN(CC)C(=O)c1cc2c(=O)n3cccc(C)c3nc2n1C | · | · | -1 | · | -11
CC(C)OC(=O)C(CC(=O)O)NCc1ccccc1 (stereo unspecified) | i | i | 14 | i | 10
COC(=O)c1nc2n(n1)C(c1cccc(Cl)c1)C1=C(CCCC1=O)N2 (stereo unspecified) | · | · | 4 | · | 4
Cc1cc2c(cc1C)C(=O)NC(C)(C)C2 | i | i | 0 | i | 9
Cn1c(CCNC(=O)c2ccco2)nc2cc(NC(=O)C3CCCCC3)ccc21 | i | i | -5 | i | -6
CCn1c(SCC(=O)Nc2cc(C)ccc2C)nc2c(c1=O)SC(C)C2 (stereo unspecified) | i | i | -2 | i | 7

Continued, overlapping the part above by 2 compounds.
SMILES | VCAM-1 imaging | VCAM-1 down | FPR ligand | VCAM-1 up imaging | FPRL1 ligand
Cn1c(CCNC(=O)c2ccco2)nc2cc(NC(=O)C3CCCCC3)ccc21 | i | i | -5 | i | -6
CCn1c(SCC(=O)Nc2cc(C)ccc2C)nc2c(c1=O)SC(C)C2 (stereo unspecified) | i | i | -2 | i | 7
CN1C(C(=O)Nc2ccccn2)=C(O)c2ccccc2S1(=O)=O | i | i | -6 | i | -1
CCSc1oc(-c2ccco2)nc1S(=O)(=O)c1ccccc1 | i | i | -8 | i | 2
C=CCn1c(CC#N)nnc1N1CCOCC1 | i | i | 0 | i | -2
O=C(CN1CCOCC1)N1CCN(S(=O)(=O)c2ccccc2)C1c1ccccc1 (stereo unspecified) | · | · | 5 | · | 3
O=C1CCCC2=C1C(c1cccs1)n1nc(SCc3ccccc3F)nc1N2 (stereo unspecified) | i | i | 8 | i | -7
CCS(=O)(=O)N1CCC(C(=O)NCCc2ccc(OC)c(OC)c2)CC1 | · | · | -4 | · | -1
OC(CCN1CCOCC1)(c1ccc(Cl)cc1)C1CCCCC1 (stereo unspecified) | i | i | -6 | i | -3
COCC(=O)Nc1c(C(=O)Nc2ccccc2OC)oc2ccccc12 | i | i | 6 | i | 1
COc1ccc(CNc2nc(NCc3ccc(OC)cc3)n(S(C)(=O)=O)n2)cc1 | i | i | 8 | i | -1
CC(=O)NCCc1nc2ccccc2[nH]1 | i | i | 7 | i | 7
O=C(Cn1cnc2c(nnn2Cc2ccccc2F)c1=O)N1CCN(c2ccccc2)CC1 | · | · | -6 | · | -4
Clc1ccc(Cl)c(-c2nn3c(Cn4cnc5ccccc54)nnc3s2)c1 | i | i | 0 | i | -1
Nc1nonc1-n1nncc1-c1ccccc1 | · | · | -5 | · | 0
CCOc1ccc(N2C(=O)CSC2c2ccncc2)cc1 (stereo unspecified) | · | · | 1 | · | 3
COc1ccc(-c2noc(CCC(=O)N3CCN(Cc4ccccc4)CC3)n2)cc1 | · | · | 7 | · | 10
COCCCNC(=O)CC(NS(=O)(=O)c1ccc(Cl)cc1)c1ccco1 (stereo unspecified) | i | i | -1 | i | 4
CCOC(=O)C1CCCN(S(=O)(=O)c2cccs2)C1 (stereo unspecified) | i | i | -12 | i | 10
CCOc1ccc(-n2c(Cc3cc(=O)[nH]c(=O)[nH]3)nnc2SCc2cccnc2)cc1 | · | · | -2 | · | 0
CCN(CCCNC(=O)CN(C)S(=O)(=O)c1cccc2nsnc12)c1ccccc1 | · | · | 9 | · | 7
N#CCCN1CCN(S(=O)(=O)c2ccc(C#N)cc2)CC1 | · | · | -1 | · | -5
CCc1ccc(S(=O)(=O)NCCc2cn3ccccc3n2)s1 | · | · | 5 | · | 2
CCOc1ccc(NC(=O)C2CCCN(S(=O)(=O)c3c(C)nn(C)c3C)C2)cc1 (stereo unspecified) | · | · | -12 | · | 0
CC(=O)N1c2c(cc(Br)cc2S(=O)(=O)N2CCN(C(=O)c3ccco3)CC2)CC1C (stereo unspecified) | · | · | 0 | · | -1
O=C(NC1CCCCC1)c1ccc(N2CCCC2=O)cc1 | · | · | -2 | · | -1
Cc1cccc2sc(NC(=O)C3CCCN(S(=O)(=O)c4cccc5nonc45)C3)nc12 (stereo unspecified) | · | · | -13 | · | 7
Cc1ccc(-n2nc(-c3cccs3)cc2C(=O)NCC2CCCO2)c(C)c1 (stereo unspecified) | i | i | 2 | i | -2
O=C(NCN1C(=O)C2C3C=CC(C3)C2C1=O)Nc1nncs1 (stereo unspecified) | · | · | 7 | · | -1
CCNC(=O)CC1C(=O)N(c2ccc(F)cc2)C(=O)N1Cc1ccc(OC)cc1 (stereo unspecified) | · | · | 3 | · | 0
O=C(Cn1cc2c(n1)CCCC2)NCc1cccnc1 | · | · | 5 | · | 3
COCCNC(=O)c1ccc2c(c1)ncn2-c1ccc(F)c(F)c1 | · | · | 0 | · | 2
Cn1cnc2c(sc3nc(N4CCOCC4)c4c(c32)CC(C)(C)OC4)c1=O | · | · | -3 | · | -5
CCCc1nc(N2CCN(C)CC2)c2sc(=S)n(-c3ccccc3)c2n1 | · | · | 6 | · | 0
N=c1n(CCN2CCCCC2)c2ccccc2n1CC(O)COc1ccccc1 (stereo unspecified) | · | · | 8 | · | 7
Cc1ncoc1C(=O)Nc1ccccc1C(N)=O | i | i | -1 | i | 5
O=C(Cn1cccc1)N1CCc2ccccc21 | · | · | -4 | · | 0
CS(=O)(=O)N(CC(=O)Nc1ccc2c(c1)OCCO2)Cc1ccccc1 | i | i | -4 | i | -4
CCOC(=O)C1CCN(c2c(N3CCCC(C(=O)OCC)C3)c(=O)c2=O)CC1 (stereo unspecified) | i | i | -3 | i | 7
Cn1c(=NC(=O)CSCC(=O)N2CCOCC2)sc2ccccc21 | · | · | -6 | · | 0
O=C1CC(c2cccc(Cl)c2)CC(O)=C1C=NCCCO (stereo unspecified) | i | i | 3 | i | 0
COc1ccc(N2CCN(C(CNS(=O)(=O)c3cccs3)c3cccnc3)CC2)cc1 (stereo unspecified) | · | · | 2 | · | 1
CNCCC=C1c2ccccc2CCc2ccccc21 | i | i | 0 | i | -5
CCOC(=O)c1[nH]c(C)c(CN(Cc2ccco2)C(=O)C(F)(F)F)c1C | · | · | -1 | · | -3
CC(C)C(CO)NC(=O)CC(=O)NC(CO)C(C)C (stereo unspecified) | i | i | -1 | i | 1
COCCNC(=O)c1ccc(Cl)c(Cl)c1 | i | i | -9 | i | 6
COc1cccc(N2CCN(Cc3cccnc3)CC2)c1 | i | i | 2 | i | -1
Cc1ccc(-c2nnn(CC(=O)N(CC(=O)NCC3CCCO3)c3ccccc3)n2)o1 (stereo unspecified) | i | i | 1 | i | 0
CC(=O)N(c1ccc(N(C(C)=O)S(=O)(=O)c2cccs2)cc1)S(=O)(=O)c1cccs1 | i | i | -4 | i | 5
COC(=O)c1cc(-c2ccccc2)sc1NC(=O)c1cc(C)on1 | i | i | -5 | i | 4
COc1ccccc1-c1nc2n(n1)C(c1cccs1)C(C(=O)Nc1cccnc1)=C(C)N2 (stereo unspecified) | i | i | 0 | i | 2
CCOC(=O)c1ccc(NC(=O)CCNS(=O)(=O)c2ccc3c(c2)oc(=O)n3C)cc1 | · | · | -3 | · | 6
(more compounds)
SMILES | VCAM-1 imaging | VCAM-1 down | FPR ligand | VCAM-1 up imaging | FPRL1 ligand
CCc1ccc(N(CC(=O)NC2CCCC2)S(=O)(=O)c2c(C)noc2C)cc1 | i | i | -4 | i | -6
Cc1ccc(C)c(NC(=O)C2CCC(C)(C(=O)O)C2(C)C)c1 (stereo unspecified) | i | i | 5 | i | 1
COc1ccccc1-c1c(C)oc2c(CN3CCN(CCO)CC3)c(O)ccc2c1=O | · | · | -7 | · | 1
CCN(CC)S(=O)(=O)c1ccc(C(=O)OCCN2C(=O)CCC2=O)cc1 | · | · | -3 | · | -2
O=C(CSc1nnc(Cn2c(=O)sc3ccccc32)n1CCc1ccccc1)N1CCOCC1 | · | · | -1 | · | 0
CCCCNC(=O)c1ccc(NC(=O)C2CCCO2)cc1 (stereo unspecified) | · | · | 5 | · | -2
CCOC(=O)N1CCN(C(=O)c2ccc(CS(=O)(=O)c3ccccc3OC)o2)CC1 | · | · | -4 | · | -2
CCCSc1nnc(NC(=O)c2sc3nc(-c4cccs4)ccc3c2N)s1 | · | · | -6 | · | -36
COC(=O)c1ccc(CN(c2ccccc2OC)S(=O)(=O)c2cccs2)o1 | i | i | 3 | i | -4
O=C(NCCCN1CCN(Cc2ccccc2)CC1)C1CCN(c2nnc(-n3cccc3)s2)CC1 | i | i | -3 | i | 4
Cc1cc(N2CCC(N(C)C3CCCC3)CC2)nc2cc(O)ccc12 | · | · | 4 | · | 4
CCC1CCCCN1C(=O)CSc1nnc(-c2cccs2)o1 (stereo unspecified) | · | · | 5 | · | -2
COc1nc(Nc2ccc(O)cc2)nc(OC(C(F)(F)F)C(F)(F)F)n1 | · | · | -1 | · | 3
CCN(CC)C(=O)C1CCCN(c2ncnc3c2cnn3-c2ccc(Cl)cc2)C1 (stereo unspecified) | i | i | 4 | i | -2
O=C(O)C1CC=CCC1C(=O)N1CCN(c2nc(-c3ccccc3Cl)c3cc(Br)ccc3n2)CC1 (stereo unspecified) | · | · | -6 | · | -7
C[N+](C)(C)CCOP(=O)([O-])OC[C@H](O)CO | i | i | -5 | i | 6
COc1ccc(NC(=O)c2oc3ccccc3c2NC(=O)C2CC2)cc1 | · | · | 8 | · | 8
COc1ccc(-c2nc(N)nc(C)c2Oc2ccccc2Br)c(O)c1 | i | i | 8 | i | 0
O=C1CC(C(=O)Nc2ccccc2C(=O)O)C(c2ccccc2)O1 (stereo unspecified) | · | · | 3 | · | -3
Cc1sc(NC(=O)C2C3CCC(O3)C2C(=O)O)c(C(=O)OC(C)C)c1-c1ccc(Cl)cc1 (stereo unspecified) | · | · | 6 | · | 2
Cc1occc1C(=O)N1CCN(c2ncccn2)CC1 | i | i | -6 | i | 5
COc1ccc(C2CC(=O)C(C=NCCN3CCOCC3)=C(O)C2)cc1 (stereo unspecified) | i | i | 11 | i | 0
C=CCn1c(CCCNC(=O)CCC)nc2ccccc21 | · | · | -5 | · | -4
CCc1cccc(NC(=O)Cn2cc3c(n2)CCCC3)c1 | i | i | -3 | i | -5
CCCSc1nnc2nc(C)cc(C)n12 | · | · | -8 | · | 5
Cc1cccc(C)c1NC(=O)CC(NCc1ccco1)C(=O)O (stereo unspecified) | i | i | 0 | i | 3
COc1ccccc1CNC(=O)C(C)NS(=O)(=O)c1ccccc1 (stereo unspecified) | i | i | -4 | i | 2
O=C(O)c1ccc2c(c1)N(Cc1ccccc1F)C(=O)c1ccccc1S2=O (stereo unspecified) | i | i | 10 | i | 9
CSc1ccc2c(c1)N(CCC1CCCCN1C)c1ccccc1S2 (stereo unspecified) | i | i | 6 | i | -2
O=C(c1ccc2c(c1)C(=O)N(Cc1ccco1)C2=O)N1CCOCC1 | · | · | -3 | · | 0

Structures shown so far containing fluorine (8):
SMILES | VCAM-1 imaging | VCAM-1 down | FPR ligand | VCAM-1 up imaging | FPRL1 ligand
CC[n+]1ccc(C)c2cc(S(=O)C(F)(F)F)ccc21 (stereo unspecified) | · | · | -3 | · | 4
O=C1CCCC2=C1C(c1cccs1)n1nc(SCc3ccccc3F)nc1N2 (stereo unspecified) | i | i | 8 | i | -7
O=C(Cn1cnc2c(nnn2Cc2ccccc2F)c1=O)N1CCN(c2ccccc2)CC1 | · | · | -6 | · | -4
CCNC(=O)CC1C(=O)N(c2ccc(F)cc2)C(=O)N1Cc1ccc(OC)cc1 (stereo unspecified) | · | · | 3 | · | 0
COCCNC(=O)c1ccc2c(c1)ncn2-c1ccc(F)c(F)c1 | · | · | 0 | · | 2
CCOC(=O)c1[nH]c(C)c(CN(Cc2ccco2)C(=O)C(F)(F)F)c1C | · | · | -1 | · | -3
COc1nc(Nc2ccc(O)cc2)nc(OC(C(F)(F)F)C(F)(F)F)n1 | · | · | -1 | · | 3
O=C(O)c1ccc2c(c1)N(Cc1ccccc1F)C(=O)c1ccccc1S2=O (stereo unspecified) | i | i | 10 | i | 9

Looked up above.
CC(=O)N1c2c(cc(Br)cc2S(=O)(=O)N2CCN(C(=O)c3ccco3)CC2)CC1C (stereo unspecified) in FPRL1 ligand → -1
Cc1ccc(-c2nnn(CC(=O)N(CC(=O)NCC3CCCO3)c3ccccc3)n2)o1 (stereo unspecified) in FPR ligand → 1
COc1cccc(N2CCN(Cc3cccnc3)CC2)c1 in FPRL1 ligand → -1
